PINK1 modulator: changes PINK1 expression | AID 624263 | PINK1 immunofluorescence, high-content cytometry, 24 h | actives 0.2% (n = 410,000) | Potency, µM (series often up to 76.6 µM), for inactives: at the highest dose activation (PINK1 increase), actives largely listed as activators; active = well fitted activation curve with a large enough effect; inconclusive = small, poorly fitted or top-dose-only effect; inactive = flat fitted curve, though single readings scatter; cell line not stated here;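 further: potency means the concentration at half of the fitted maximal effect; % of control where 0% means no effect; nearly all actives have a fitted effect of over 65% in size; a mitochondrial uncoupler was the plate control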
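PINK1 protein level read as immunofluorescence by microplate cytometer in a fixed, stained stable cell line after 24 h exposure to five compound concentrations, with CCCP as control.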
TRPML1 blocker: inhibitors of human TRPML1 channel | AID 624415 | TRPML1-inducible cells, Ca2+ dye fluorescence, FDSS; stronger effect = lower value; inhibition of EC80 agonist-evoked calcium signal | Q9GZU1 | actives 0.02% (n = 390,000) | activity change, negative = inhibition, % (test concentration not listed); in the data active means activity change below about -50%; inconclusive means about -30% to -50%; inactive means above about -30%;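 further: stimulus is agonist 54-4 at its EC80 concentration; on the % scale 0 is the no-effect control and ±100 the full control effect; compound concentration not given in the record; the text of the record puts the active cut at -80%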
Target sequence (Q9GZU1 whole entry, looked up): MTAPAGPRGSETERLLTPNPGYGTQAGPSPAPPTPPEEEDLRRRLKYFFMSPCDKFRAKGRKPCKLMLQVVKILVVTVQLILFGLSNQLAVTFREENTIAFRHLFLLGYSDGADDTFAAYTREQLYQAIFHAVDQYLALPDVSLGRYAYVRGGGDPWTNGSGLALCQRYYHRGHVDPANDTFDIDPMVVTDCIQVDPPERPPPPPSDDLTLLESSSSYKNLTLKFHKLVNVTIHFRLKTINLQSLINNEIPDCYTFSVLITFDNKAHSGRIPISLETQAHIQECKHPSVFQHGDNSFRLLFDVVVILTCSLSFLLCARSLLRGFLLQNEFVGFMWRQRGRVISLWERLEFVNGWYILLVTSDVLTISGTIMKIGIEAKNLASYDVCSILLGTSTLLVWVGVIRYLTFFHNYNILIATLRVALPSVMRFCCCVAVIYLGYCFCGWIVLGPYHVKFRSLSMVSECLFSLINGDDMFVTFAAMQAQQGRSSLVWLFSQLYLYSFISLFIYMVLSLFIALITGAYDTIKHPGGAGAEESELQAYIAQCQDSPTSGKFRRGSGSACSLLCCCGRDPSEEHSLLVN
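Tet-induced TRPML1-DL cells loaded with Ca8 no-wash calcium dye were read kinetically on FDSS. Compound addition was followed by EC80 agonist 54-4 (4 uM final); inhibition was read over 110 s.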
D2 ag: activates the human D2 dopamine receptor; P14416; DiscoveRx PathHunter D2 beta-arrestin, luminescence, 90 min; 100% = 57 uM dopamine signal; activation, % (concentration not given with the values); actives 0.084% (n = 360,000); in the data active = activation above about 40%; inconclusive = about 15% to 40%; inactive = below about 15%; further: compound concentration not given in the record; the text of the record calls up to 30% inactive
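Agonist mode: compounds alone added to overnight-plated D2 PathHunter cells for 90 min at 37 C, with 57 uM final dopamine (EC100) defining full response. Beta-arrestin recruitment detected by chemiluminescent reagent, read after 1 h at ambient temperature.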
TRPML1 agonist: human mucolipin-1 channel agonism. TRPML1-expressing cells, Ca2+ dye fluorescence, FDSS; host cell line not named in the record; reference of the full effect not given here. actives 0.12% (n = 410,000). Q9GZU1. activation, % (test concentration not listed); in the data active = activation above about 50%; inconclusive = about 30% to 50%; inactive = below about 30%; further: 0% is about no effect; the text of the record puts the active cut at 80%
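Kinetic FDSS Ca2+ read in Tet-induced TRPML1-DL cells (ABD Ca8 dye plus quencher, 45-90 min RT loading): baseline, then compound, then 110 s agonist window; EC80 agonist 54-4 at 4uM final added afterwards for a 110 s antagonist window.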
Six1-Eya2 inh: Six1/Eya2 interaction inhibition. activity change, % (no concentration beside the values). AlphaScreen GST-Six1/His-Eya2 binding, biochemical; stronger effect = lower value; control for the full effect not named in the record. actives 0.56% (n = 360,000). Q15475+O00167; in the data active = activity change below about -65%; inconclusive = about -30% to -65%; inactive = above about -30%; further: on the % scale 0 is the no-effect control and ±100 the full control effect; compound concentration not given in the record
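AlphaScreen luminescence read after one hour at 37 °C in darkness. Pin-transferred compounds met GST-Six1 and His-Eya2 protein (5X stock 250 nM/500 nM) plus glutathione donor and Ni-chelate acceptor beads (5X, 50 ug/mL).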
D2 PAM: human D2 receptor positive allosteric modulation; P14416; actives 0.23% (n = 360,000); DiscoveRx D2 beta-arrestin cells, luminescence, 90 min; 100% = 57 uM dopamine signal; potentiation, % (concentration not given with the values); active = potentiation of 50% or more; inconclusive = 30% to 50%; inactive = 30% or less;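 further: compound concentration not given in the record; tested on top of an EC20 dose of dopamine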
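PathHunter D2 cells, attached overnight at 37 deg C, received compound in DMSO plus dopamine at EC20 (50 nM final) for 90 min at 37 deg C. Beta-arrestin recruitment was read as luminescence after 1 h with detection reagent at ambient temperature.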
An asterisk follows results filed as active; ? = inconclusive; nt = no result given; & = joins results of further samples; [ ] = dose if it differs, or a comment.

SMILES | PINK1 modulator | TRPML1 blocker | D2 ag | TRPML1 agonist | Six1-Eya2 inh | D2 PAM
CN1CCN(Cc2cccc(Oc3ccc(Cl)cc3)c2)CC1 | nt | -1 | -1.9 | -0.3 | -13 | -41
Cc1nn(Cc2ccc(Cl)cc2)c(C)c1NC(=O)c1ccc([N+](=O)[O-])cc1 | 6.3% | -3 | 3.8 | 0.1 | 1 | 4
CC1(C)OC(=O)C(=CSc2ccc(C(C)(C)C)cc2)C(=O)O1 | -0.9% | 23 | 6.6 | -0.1 | -5 | 1
CC(C)(C)c1ccc(-c2conc2N)cc1 | 9.4%[38.3 µM] | -3 | 4.6 | 1.4 | 6 | 7
COc1ccc(C2CC(=O)c3cc(-c4nc(-c5cccc([N+](=O)[O-])c5)cs4)c(=O)n(-c4ccccc4N)c3C2)cc1 (configuration not stated) | 3.9% | 10 | nt | -0.2 | nt | nt
Cc1c(-c2c(C#N)c(N)nc3c2CCCCCC3)cnn1C | -0.7% | -4 | -0.2 | -1.5 | -2 | -1
Cc1ccc(Nc2c(O)nc[nH]c2=O)cc1C | 0.7% | -6 | 1.6 | 0.3 | 7 | -4
COc1ccc(N2CC(NS(=O)(=O)c3cccs3)CC2=O)cc1 (configuration not stated) | 0.3% | -1 | -3.7 | -0.6 | 8 | 0
Cc1ccccc1CN1CCN(C2CCC2)CC1CCO (configuration not stated) | -0.8% | 29 | 1.4 | -0.3 | -4 | -7
Cc1ccc(-n2c(SCC(=O)Nc3ccc4c(c3)OCO4)nnc2-c2ccccn2)cc1 | 23%[38.3 µM] | -3 | -0.7 | 0.5 | -11 | -1
O=S(=O)(c1ccc(F)c(F)c1)N1CCN(CCc2ccccc2)CC1 | 0.8% | ? | 3.5 | 0.9 | 0 | -5
CCn1cc(CN2CCCC(C(=O)Nc3cccc(-c4cc5ccccc5[nH]4)c3)C2)cn1 (configuration not stated) | 0.3% | -3 | 0.6 | -0.1 | -1 | -6
CCN(Cc1ccccc1)C(=O)CSc1nc(C)cc(=O)[nH]1 | -1.0% | -11 | -1.7 | 1.6 | 4 | 2
Cc1csc(NC(=O)CCCC(=O)c2ccccc2)n1 | 1.6% | 10 | -1.0 | -0.8 | 0 | -4
CCC(CC)C(=O)NCCN1CCN(C(=O)C(CC)CC)CC1 | 1.7% | -6 | -0.3 | 0.0 | 12 | -14
COc1ccc(C)cc1S(=O)(=O)N1CCC2(CC1)OCCN2S(=O)(=O)c1cccs1 | 0.2% | 40 | -0.2 | 1.5 | -3 | -5
O=C(CCc1c[nH]c2ccccc12)NC(Cc1ccccc1)C(=O)O (configuration not stated) | 0.4% | 4 | -2.9 | 1.0 | -4 | -13
CC(=O)N1CSCC1C(=O)NNS(=O)(=O)c1cccc(C(F)(F)F)c1 (configuration not stated) | -1.5% | -7 | 3.1 | -0.4 | -9 | 2
COc1ccc(OC)c(NC(=O)c2cc3ccccc3cc2OC)c1 | 2.6% | 36 | 3.8 | 1.1 | -12 | 1
Cc1nc(CN2C(=O)C3(CCC3)ON=C2c2cccc(Cl)c2)cs1 | -0.9% | nt | 8.2 | -1.3 | 2 | -2
CCn1nc(C)c(CNC(=O)CC2C(=O)NCCN2CC(C)(C)C)c1C (configuration not stated) | 2.0% | 5 | -2.2 | 0.4 | -9 | -4
CCCCn1c(N)c(N(CCC(C)C)C(=O)c2sc3nc4n(c(=O)c3c2C)CCC4)c(=O)[nH]c1=O | -0.9% | 15 | -0.6 | -0.4 | 3 | -2
Cc1nc2ccccc2n1Cc1n[nH]c(=S)n1-c1ccc(Cl)cc1 | -0.4% | 11 | 2.3 | -0.3 | -9 | -13
O=C(N/N=C/c1cc2c(cc1Cl)OCO2)c1cccc(Br)c1 | 5.9% | 0 | -0.2 | 0.8 | -12 | -37
Cc1ccc(CSc2nnc([C@@H]3CCCN3C(=O)OC(C)(C)C)o2)cc1 | 0.0% | 8 | -1.8 | 2.5 | 10 | -7
CCc1nc2c(OCc3ccc(C(F)(F)F)cc3)cccn2c1N(C)C(=O)c1ccncc1 | 1.4% | nt | -1.1 | -1.0 | -2 | -2
CCCC1(C(=O)OCC)NC(c2ccc(N(C)C)cc2)C2C(=O)N(c3ccc(F)cc3)C(=O)C21 (configuration not stated) | 1.4% | 5 | -4.1 | 0.9 | ? | -22
CCN=C1S/C(=C\c2ccc(O)c(OCC)c2)C(=O)N1CC | 6.4% | -7 | -3.0 | 2.2 | 3 | -8
O=C(CSc1ccc([N+](=O)[O-])cc1)NCC1CCCCC1 | -0.4% | -2 | 4.1 | -0.9 | -3 | 3
Fc1ccc(CNc2ccccn2)cc1 | 1.2% | nt | 3.0 | nt | -6 | -10
CC(C)OCCCNc1nc2c(c(=O)n(Cc3ccccc3F)c(=O)n2C)n1C | 3.2% | -11 | -2.1 | 0.5 | -2 | 6
Cc1ccc(NC(=O)N2CCN(C(=O)c3nsc4ccccc34)CC2)cc1C | -0.8% | -14 | nt | 2.1 | nt | nt
O=C(CN1CCOCC1)Nc1ccc(-c2nc3ccccc3[nH]2)cc1 | -2.7%[38.3 µM] | -12 | 1.9 | 0.3 | -14 | -4
COc1ccc(C(=O)CSc2nnc(-c3cc4ccccc4cc3O)n2Cc2ccco2)cc1 | -0.9% | 9 | -5.7 | 0.1&-0.6 | -16 | -6
O=C(CC12CC3CC(CC(C3)C1)C2)NCc1ccccc1 | 11% | -12 | -0.8 | 0.7 | 0 | -3
COc1ccc(COc2cc(-c3cccc(OC)c3)nc3ccc(NC(=O)c4ccc(OC)cc4)cc23)cc1 | 11% | -6 | 3.8 | 0.1 | -17 | -3
CCn1c(=O)n(CC)c2cc(NS(=O)(=O)c3ccccc3)ccc21 | 0.3% | 20 | -1.4 | 0.8 | -9 | 7
COc1ccc2c(c1)OC[C@H]1[C@H]2N2C(=O)c3cc(OC)c(OC)cc3NC(=O)[C@@]2(C)[C@H]1c1ccccc1 | 1.2% | 4 | -0.4 | 0.7 | -22 | 2
Cc1ccc2c(c1)[C@H]1[C@H](CO2)[C@H](c2ccccc2)[C@]2(C)C(=O)N(CC3CCCO3)CC(=O)N12 (some centres not stated) | 0.9% | -9 | -2.2 | -0.3 | -14 | -4
Cc1ccc(S(=O)(=O)/N=C(\N)Nc2nc(C)c3ccccc3n2)cc1 | -0.5% | 5 | -0.7 | 2.2 | -21 | -7
CCN(CC(=O)NCc1ccc(Cl)cc1)C(=O)CCOc1ccc(C)cc1 | -0.2% | 48 | -0.6 | -0.3 | 7 | 8
CC(C)(c1ccc(O)cc1)c1ccc(O)c(C(=O)O)c1 | -0.7% | 6 | -0.8 | -0.3 | 6 | -11
CCc1ccccc1NC(=S)N(CCN1CCOCC1)Cc1ccccc1F | 0.7% | 12 | 0.1 | 1.2 | -3 | -8
Cc1cccc(N2C(=O)C(O)=C(C(=O)c3cccs3)C2c2ccc(F)cc2)n1 (configuration not stated) | 1.9% | 22 | -0.4 | 1.9 | 3 | -5
CCc1nn(C(C)C(=O)N2CCN(c3cccc(C(F)(F)F)c3)CC2)c(=O)c2cc3occc3n12 (configuration not stated) | 0.1% | 25 | nt | 4.8 | nt | nt
O=C(NCCc1ccccc1)C1CCC(CNS(=O)(=O)c2ccc(F)cc2)CC1 (configuration not stated) | 0.1% | 22 | -4.2 | 0.8 | 2 | 5
CCc1ccc(NC(=O)CCCc2nnc3n(CC(C)C)c(=O)c4sccc4n23)cc1 | -0.1% | -1 | nt | 0.2 | nt | nt
CC(C)c1ccc(NC(=O)CNCC(c2ccccc2)N(C)C)cc1 (configuration not stated) | -1.1% | 13 | -2.2 | -0.2 | 0 | -7
CC(C)CC(N)c1csc(NC(=O)c2cc(C(C)(C)C)nn2Cc2ccccc2)n1 (configuration not stated) | -1.3% | nt | -2.7 | 2.8 | -5 | -9
CCOC(=O)c1c(C)[nH]c(C)c1C(=O)CSc1nc2ccccc2c(=O)n1-c1ccc(CC)cc1 | -1.7% | 5 | -0.9 | 1.8 | -18 | -8
Cn1c(=O)c2cc(S(=O)(=O)NCCC(=O)NCc3ccccc3Cl)ccc2n(C)c1=O | 0.8%[38.3 µM] | 7 | -0.5 | -0.3 | -69* | -17
O=C(Cn1c(=O)c2cccn2c2cccnc21)NCCCN1CCN(c2ccc(F)cc2)CC1 | 0.4% | 2 | 0.8 | -0.1 | 5 | -54
CC(C)(C)C(=O)c1cnc(Nc2ccccc2)s1 | 0.7% | 6 | -1.2 | 0.9 | 0 | 2
COc1ccc(CC(C)CC(=O)NCCc2ccc(OC)c(OC)c2)cc1 (configuration not stated) | -0.1% | -7 | -0.7 | -0.3 | 1 | -2
O=Cc1ccc(O)cc1O | 0.4% | nt | -5.0 | nt | 1 | -10
C/C(=N/NC(=O)CCc1c(C)n[nH]c1C)c1cccc([N+](=O)[O-])c1 | -0.5% | -9 | -3.1 | -1.1 | 2 | -20
Clc1ccc(-n2nnnc2-c2ccno2)cc1 | -0.5% | 21 | 3.7 | 1.8 | 3 | 1

Screening data from PubChem.

Random draw from the library; 1% or so of the library scored in one or more.
